Rango complex inh – inhibitors of Rango-importin beta complex formation. Q14974. Rango CFP/YFP FRET sensor + importin beta, 45 min. Potency, µM (top dose mostly 92.2 µM), inactives show top-dose inhibition of complex formation. 340,000 tested, 0.031% active. AID 540263; active = rising FRET ratio curve, often small or poorly fitted; inconclusive = mostly compound fluorescence or quenching in the first reads; inactive = flat curves in all reads;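 further: potency means the concentration at half of the fitted maximal effect; 0% = DMSO wells and 100% = buffer wells lacking importin beta; nearly all actives have a fitted effect of over 15% in size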
Target sequence (Q14974 whole entry, looked up): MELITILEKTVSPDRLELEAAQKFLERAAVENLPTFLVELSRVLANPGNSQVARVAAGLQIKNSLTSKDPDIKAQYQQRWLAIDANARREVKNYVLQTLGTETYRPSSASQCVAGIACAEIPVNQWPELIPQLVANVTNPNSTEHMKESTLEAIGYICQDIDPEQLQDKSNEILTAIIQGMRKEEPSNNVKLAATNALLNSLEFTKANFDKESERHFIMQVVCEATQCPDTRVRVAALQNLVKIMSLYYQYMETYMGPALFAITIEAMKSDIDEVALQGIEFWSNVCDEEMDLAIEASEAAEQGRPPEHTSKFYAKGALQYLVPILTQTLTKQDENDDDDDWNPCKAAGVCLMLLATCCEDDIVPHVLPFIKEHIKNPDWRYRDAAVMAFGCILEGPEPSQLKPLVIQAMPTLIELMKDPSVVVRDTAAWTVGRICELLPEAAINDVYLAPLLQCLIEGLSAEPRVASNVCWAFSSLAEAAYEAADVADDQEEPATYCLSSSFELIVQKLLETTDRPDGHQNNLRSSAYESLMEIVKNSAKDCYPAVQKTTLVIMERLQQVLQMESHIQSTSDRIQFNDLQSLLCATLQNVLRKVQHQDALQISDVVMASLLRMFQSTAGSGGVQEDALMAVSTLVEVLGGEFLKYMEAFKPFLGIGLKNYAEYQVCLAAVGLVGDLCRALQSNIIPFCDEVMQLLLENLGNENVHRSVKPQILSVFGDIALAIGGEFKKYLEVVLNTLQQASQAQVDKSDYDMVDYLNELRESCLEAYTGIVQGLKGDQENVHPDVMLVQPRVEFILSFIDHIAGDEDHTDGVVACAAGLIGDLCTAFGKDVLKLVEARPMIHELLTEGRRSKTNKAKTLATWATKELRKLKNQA
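FRET biosensor Rango (snurportin 1 IBB between N-terminal EYFP and C-terminal Cerulean), 50 nM in PBS/1 mM DTT/0.02% Tween-20/0.1% BSA, preincubated 5 min RT with compound; 0.125 microM importin beta added, 45 min RT, CFP/YFP FRET ratio read.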
GLA inh pH 4.5 – alpha-galactosidase A (human) inhibition, pH 4.5; purified enzyme, 4-MU-alpha-Gal fluorescence, pH 4.5; activity change, negative = inhibition, % at 105 µM; 230,000 tested, under 10 active; inconclusive = small, poorly fitted or top-dose-only inhibition, or a rising curve; inactive = flat fitted curve, though single readings scatter; no compound was filed as active;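 further: 0% = full activity with enzyme and -100% = basal without enzyme; dose as in the result columns while the protocol names 77 µM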
miR-21 reporter – raises the signal of a miR-21 reporter. Potency, µM (titrated, usually from 38.3 µM), for inactives: top-dose reporter change, positive = more light. 340,000 tested, under 10 active. HeLa miR-21 FLuc reporter, luciferase, 48 h; active = well fitted rising curve with a large enough effect; inconclusive = small, poorly fitted or top-dose-only effect; inactive = no such curve, though single readings can be large or run the other way;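 further: % of control where 0% means no effect; miR-21 action dims this reporter so a rising signal means less miR-21 action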
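HeLa miR-21-FLuc reporter line, endogenous miR-21; 2000 cells/well in DMEM/10% FBS; compound titration up to ~40uM final, 48 h, 37 degree Celsius; luciferase detection reagent, 15 min lysis, CCD luminescence.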
Rango release inh – inhibition of RanGTP-driven Rango-importin beta dissociation | O95149+P62826 | Biochemical FRET Rango-importin beta, RanGTP-induced dissociation | Potency, µM (series often up to 46.1 µM), for inactives: top-dose activity change, negative = inhibition | 340,000 tested, 0.071% active; active means falling FRET ratio curve, often poorly fitted, with flat reads before Ran was added; inconclusive means other falling curves, or compound fluorescence or quenching; inactive means flat or rising ratio curve;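 further: potency means the concentration at half of the fitted maximal effect; % of control where 0% means no effect; nearly all actives have a fitted effect of over 45% in size; -100% = wells without RanGTP and RCC1; the record marks most hits as doubtful in a second field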
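Rango FRET biosensor (snurportin-1 IBB flanked by N-terminal EYFP and C-terminal CFP10) at 0.1 uM, with 0.25 uM importin beta in PBS, 1mM DTT, 0.02% Tween-20, 0.1% BSA. 0.6 uM Ran, 2mM GTP and 0.2 uM RCC1 were then added for 45 min at room temperature. Inhibition read as loss of FRET rise.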
* = called active by the depositor; ? = inconclusive; nt = not tested or not shown.

Below each compound: Rango complex inh	GLA inh pH 4.5	miR-21 reporter	Rango release inh
- Cc1ccc(-n2cnc3c(sc4nccc(N(C)C)c43)c2=O)cc1
 : -3.1%	-12	-14%	8%
- CC(OC(=O)c1ccccn1)C(=O)Nc1ccc2c(c1)OCCO2 (centres undefined)
 : -3.5%	nt	nt	34%
- CC(Oc1ccccc1)C(=O)Nc1ccc(S(=O)(=O)N2CCN(C)CC2)cc1 (centres undefined)
 : 1.1%	nt	nt	1%
- CC1(C)Cc2cccc(C(=O)Nc3ccncc3)c2O1
 : 5.3%	1	4%	2%
- O=C(Nc1cccc(-c2nc3ccccc3c(=O)o2)c1)c1ccccc1
 : 4.4%	-3	2%	0%
- CCOC(=O)C1(C)NC(c2cccs2)C2C(=O)N(c3ccc(C)cc3)C(=O)C21 (centres undefined)
 : 0.8%	2	5%	0%
- CCOC(=O)c1c(C)[nH]c(C)c1C(=O)CSc1nncs1
 : ?	8	-6%	-13%
- O=C(Cc1cccs1)NC1(C(=O)NC2CCCC2)CCCCC1
 : -1.0%	-1	-1%	-3%
- COc1ccc(/C=C\C(=O)NCC(=O)N/N=C/c2cccc(OC)c2O)cc1
 : -0.2%	nt	-2%	-8%
- COC(=O)c1ccc(C2NC(=O)c3c(sc(C)c3C)N2)cc1 (centres undefined)
 : ?	-7	-10%	-13%
- COc1cccc(NC(=O)NNS(=O)(=O)c2ccc(OC)cc2OC)c1
 : -3.3%	nt	-3%	-11%
- COc1ccc(-c2sc3ccc(OC)cc3c2C#CCCO)cc1
 : -0.5%	nt	-3%	19%
- COc1ccc(OCCCC(=O)OCC(=O)Nc2sccc2C(N)=O)cc1
 : -2.9%	nt	nt	-10%
- CCOc1cc(/C=C2\C(=O)N(CCc3ccc(OC)c(OC)c3)C(C)=C2C(=O)OC)ccc1O
 : -7.0%	0	-5%	-27%
- C/C(CC1CC(C)(C)OC1=O)=N\NC(N)=S (centres undefined)
 : 1.0%	5	2%	-5%
- O=C(CSc1nnc(C2COc3ccccc3O2)o1)N1CCN(c2ccccc2)CC1 (centres undefined)
 : 3.7%	4	6%	-7%
- Cc1cc(C)n2nc(SCC(=O)NC3CCCCC3C)nc2n1 (centres undefined)
 : -0.5%	nt	0%	-30%
- Clc1ccc(-c2nnc(C34CC5CC(CC(C5)C3)C4)o2)cn1
 : 0.9%	0	-3%	-5%
- COC(=O)c1ccc(NC(=O)C(=O)N2CCN(C(=S)Nc3cccc(C)c3C)CC2)cc1
 : 1.3%	7	12%	2%
- CCCCC(=O)Nc1cccc(NC(=O)c2ccc3c(c2)OCO3)c1
 : -5.4%	-4	-8%	1%
- Cc1csc(N/N=C\c2cccnc2)n1
 : -2.1%	0	-35%	6%
- CCOc1ccc(NS(=O)(=O)c2cc(NC(=O)C3CC3)ccc2C)cc1Br
 : 11%	nt	nt	14%
- O=C1COc2ccc(C(=O)COC(=O)Cc3ccc(Cl)cc3)cc2N1
 : 7.3%	1	-8%	-11%
- CCn1c(=O)c2c(n3c(=S)[nH]nc13)-c1ccccc1CC21CCCCC1
 : 3.2%	-3	1%	-3%
- Cc1ccc(SCc2cc(=O)[nH]c(/N=C(\N)Nc3ccccc3Sc3ccccc3)n2)cc1
 : -0.2%	-1	-1%	-7%
- Cc1ncc(CO)c(/C=N/NC(=O)c2ccc(Br)cc2)c1O
 : nt	-7	21%	nt
- C(=N\n1cnnc1)/c1ccc2c(c1)OCO2
 : -1.1%	-6	-1%	-1%
- CC(=O)c1sc(NC(=O)c2cccc3ccccc23)nc1C
 : 0.7%	1	-45%	3%
- COCCCNC(=O)c1cc(C)nn1-c1ccccc1
 : 0.6%	0	1%	-17%
- O=C(CSc1nc2ccccc2[nH]1)Nc1ccc(N2CCOCC2)cc1
 : 5.5%	nt	-4%	-3%
- Cc1ccc(S(=O)(=O)NC2=NCN(C(C)C)CN2)cc1
 : -2.7%	nt	-1%	-1%
- CSc1nc(Cl)cc(N2CCOCC2)n1
 : 0.1%	-1	-25%	18%
- N#CCC(=O)Nc1ccc(C(=O)NNC(=O)CCN2CCN(c3ccccc3)CC2)cc1
 : ?	nt	nt	-10%
- Cc1ccc(C(=O)N2CCOCC2)cc1S(=O)(=O)Nc1cccc(C)c1C
 : -4.3%	-3	-4%	-4%
- CCOC(=O)C(Cc1ccc(O)cc1)NC(=O)CCc1c[nH]c2ccccc12 (centres undefined)
 : -2.9%	nt	-5%	-5%
- COc1ccc(CC(=O)N2CCN(c3ccccc3)CC2)cc1
 : -0.2%	nt	-11%	-6%
- CCOC(=O)C1=C(C)Nc2ccccc2N/C1=N\S(=O)(=O)c1ccc(Cl)cc1
 : 1.5%	nt	nt	11%
- Cc1ccc(CN2CCN(CC(=O)N3CCc4ccccc4C3)C2=O)cc1
 : nt	3	7%	nt
- Cc1nc2cc(-c3ccc(F)cc3)[nH]n2c(=O)c1C
 : -0.6%	nt	-43%	20%
- O=C(Cn1cnc2c(nnn2Cc2ccc(Cl)cc2)c1=O)c1ccccc1
 : -0.3%	1	-4%	10%

Reprinted from the part before: 2 entries, followed by the next part.
Below each compound: Rango complex inh	GLA inh pH 4.5	miR-21 reporter	Rango release inh
- Cc1nc2cc(-c3ccc(F)cc3)[nH]n2c(=O)c1C
 : -0.6%	nt	-43%	20%
- O=C(Cn1cnc2c(nnn2Cc2ccc(Cl)cc2)c1=O)c1ccccc1
 : -0.3%	1	-4%	10%
- COCC1CCCCN1Cc1cn(-c2ccccc2)nc1-c1ccc2c(c1)OCO2 (centres undefined)
 : -1.7%	-7	-10%	6%
- Cc1c(C(=O)NCc2cccnc2)sc2ncn(CC(=O)N3CCCCC3C)c(=O)c12 (centres undefined)
 : -2.2%	0	-1%	2%
- O=C(NCC1CCCCC1)c1ccc([N+](=O)[O-])cc1
 : 3.7%	nt	-23%	5%
- Cc1csc2c(N3CCC(C(=O)O)CC3)ncnc12
 : -0.2%	-18	-25%	-6%
- Cc1cccc(CN2CCC(N3CC(C)OC(C)C3)CC2)c1 (centres undefined)
 : -0.8%	nt	2%	9%
- Cc1ccc(S(=O)(=O)c2nc(-c3ccccc3)oc2NCc2cccnc2)cc1
 : -4.2%	-10	-12%	0%
- CCOC(=O)C1=C(C)NC(=O)NC1c1cc(Br)c(O)c(OC)c1 (centres undefined)
 : 2.0%	-6	-19%	-9%
- COc1cc(NC(=NS(=O)(=O)c2ccccc2)c2ccccc2)ncn1
 : 2.4%	nt	nt	0%
- CCOc1ccc(OCCC(=O)OCC(=O)NC2CCCC2)cc1
 : -0.6%	nt	nt	-7%
- O=C(c1ccco1)N1CCN(C(c2cccs2)c2nnnn2C2CCCC2)CC1 (centres undefined)
 : 5.2%	-13	-8%	3%
- Brc1cc(Br)cc(CN2CCSCC2)c1
 : 4.1%	3	1%	?
- O=NNc1nc2ccccc2n1Cc1ccccc1
 : 2.4%	nt	?	0%
- CSc1ccc(CN2CCC(N3CC(C)OC(C)C3)CC2)cc1 (centres undefined)
 : 0.0%	nt	4%	6%
- O=C(c1nn2c(C(F)(F)F)cc(-c3ccc(F)cc3)nc2c1Cl)N1CCOCC1
 : -2.3%	2	0%	2%
- CC(C)(C)c1ccc(C(=O)Nc2ccc(O)c3c(=O)cc(-c4cccc(Cl)c4)oc23)cc1
 : -0.4%	7	2%	-3%
- COc1ccc(N2C(=O)CC(c3ccccc3)C2=O)cc1 (centres undefined)
 : 0.4%	5	-1%	0%
- O=C(Nc1cccc(-c2nc3ccccc3s2)c1)c1cccs1
 : -1.2%	-13	-21%	-11%
- O=C(c1ccc(O)cc1)c1ccc(Cl)cc1
 : -0.2%	-1	-33%	7%
- CCOC(=O)c1csc(NC(=O)C2CCCCC2)n1
 : 4.2%	1	-47%	-14%
- O=C(NC(=O)c1ccc(F)cc1F)Nc1ccc(Cl)cc1
 : -1.5%	3	-36%	-12%
- Cc1nc2c(-c3ccccc3)c(C)[nH]n2c(=O)c1Cl
 : -0.9%	-1	1%	-10%
- CCc1ccc(N2CN(Cc3ccco3)CNC2=S)cc1
 : 1.5%	0	6%	-4%
- CC(C)(C)NC(=O)C(OC(=O)c1cccs1)c1ccc(F)cc1 (centres undefined)
 : -0.8%	2	3%	0%
- O=C(COC(=O)[C@@H]1CC(O)CN1S(=O)(=O)c1ccc(Cl)c(Cl)c1)NC(=O)NCc1ccccc1 (some centres undefined)
 : -3.2%	nt	nt	-4%
- COc1cccc2cc(C(C)N(CCCN3CCOCC3)C(=S)Nc3ccccc3C)oc12 (centres undefined)
 : 0.1%	-12	0%	-14%
- CC(C)Cc1nnc(NC(=O)CS(=O)(=O)Cc2ccccc2)s1
 : 2.4%	3	4%	-6%
- Cc1oc(C(=O)O)cc1COc1ccc2c(C)cc(=O)oc2c1
 : 0.3%	-2	-4%	1%
- Cc1cc(C)cc(Oc2coc3c(CN(C)C)c(O)ccc3c2=O)c1
 : -4.9%	nt	2%	-11%
- CCOC(=O)c1nnn(CC(=O)N2N=C(c3cc(C)ccc3C)CC2c2ccc(OC)cc2)c1C(=O)OCC (centres undefined)
 : -5.4%	-12	9%	18%
- O=[N+]([O-])c1ccc(CSc2nnc3ccccn23)cc1
 : -0.9%	-3	-8%	14%
- Cc1cc(C(F)(F)F)c2c(N)c(C(=O)Nc3cc(C)on3)sc2n1
 : ?	-3	-49%	?
- O=C(CCCn1c(=O)[nH]c2cc(Cl)ccc2c1=O)NCCCN1CCCC1=O
 : 0.6%	-6	6%	-13%
- COc1ccccc1CNc1nc(SC)ncc1CO
 : 1.8%	-3	-6%	1%
- O=S(=O)(c1ccccc1)N(C1=NCCS1)S(=O)(=O)c1ccccc1
 : 3.7%	7	-1%	16%
- O=C(O)CSCC(=O)Nc1cccc2ccccc12
 : 6.5%	3	0%	-1%
- CC1CCCC(NC(=O)CCS(=O)(=O)c2cc3c(cc2Cl)NC(=O)CO3)C1C (centres undefined)
 : 3.4%	nt	-1%	23%
- Cn1c(SCC(=O)NCc2ccccc2)nnc1-c1ccc(NC(=O)CCc2ccccc2)cc1
 : -2.4%	10	-8%	-9%
- Cc1cc(S(=O)(=O)N(Cc2ccccc2Cl)c2ccc3c(c2)CCC3)ccc1-n1cnnn1
 : ?	9	0%	-7%
- COc1cc(C(O)CO)ccc1OS(=O)(=O)O (centres undefined)
 : 0.0%	-5	nt	-3%
- Cn1c(=S)[nH]c2ccccc21
 : 5.7%	2	-5%	14%
- C=CCn1c(O)c(N=NC(=O)OC(C)(C)C)c2ccccc21
 : 3.0%	-4	-12%	0%
- Fc1ccc(NC(=S)N/N=C/c2ccc(F)c(F)c2)c(F)c1
 : -4.1%	-2	-19%	3%
- Cc1ccc(OCCC(=O)NCCc2ccc(S(N)(=O)=O)cc2)cc1
 : -0.2%	4	-8%	-11%
- COc1ccc(S(=O)(=O)N2CCN(CC3CC=CCC3)CC2)cc1 (centres undefined)
 : 1.0%	nt	-1%	-11%
- O=C(NCCOc1ccccc1)c1ccccc1[N+](=O)[O-]
 : 6.3%	2	-15%	12%
- CC1(c2ccc3ccccc3c2)NC(=O)N(CC(=O)Nc2cccc(S(=O)(=O)N3CCOCC3)c2)C1=O (centres undefined)
 : -4.0%	-11	15%	9%
- CCN(CC)S(=O)(=O)c1cccc(-c2nnc(SCc3nnc(-c4cccs4)o3)n2N)c1
 : -2.8%	5	8%	-16%
- COc1ccc(C(=O)NCC(=O)N/N=C/c2cccnc2)cc1
 : 1.1%	nt	-3%	-13%
- COCCN(CCOC)C(=O)Nc1ccc(Cl)cc1
 : -3.2%	-25	-18%	-2%
- COc1cc2cncc(Cc3ccc(Cl)cc3)c2cc1OC
 : -6.5%	nt	nt	0%
- Cc1ccc(-c2csc3ncnc(NS(=O)(=O)c4ccc(Cl)cc4)c23)cc1
 : 2.9%	-4	-3%	3%
- Cc1ccc(S(=O)(=O)NCCC(=O)Nc2ccc(C)cc2C(=O)c2ccccc2)cc1
 : -0.9%	-11	13%	-15%
- O=C(NCc1ccco1)c1ccc(-c2ccccc2Cl)o1
 : -0.3%	-5	-38%	-7%
- Cc1ccc(OCC(=O)Nc2ccc(CN3CCOCC3)cc2)cc1C
 : -1.2%	nt	3%	-5%
- Cc1ccc(C(C)(C)C)c(OCCOCCN2CCCC2)c1
 : -2.1%	-6	0%	-6%

Bioassay records: PubChem BioAssay, National Center for Advancing Translational Sciences (NCATS)

Not all compounds are listed, so the mix of outcomes need not match the whole.
